Screening results deposited in PubChem BioAssay by several laboratories.
HSV augment: HSV replication enhancement; 220,000 compounds, 0.005% hits; AID 1956; HSV replication augmentation in cells, fold increase; maximum fold increase;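 active = peak rise of 1.5-fold or more in the series; tested in PC3 cells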;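 also: first round at 10 µM; read as green reporter fluorescence; hits show the peak of a series up to 25 µM; 1 = signal of infected wells without compound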
RGS16-Gao: RGS16-Galphao interaction regulator (human); bead-based flow cytometry RGS16-Galphao binding, fluorescence; actives lie on both sides; binding response (% of control), % at 10 µM; 220,000 compounds, 0.38% hits;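 active = below 25% or above 175%, edge rows of some plates excepted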;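 also: Galphao activated by GDP with aluminum fluoride before binding; 100% = wells without compound and 0% = beads without RGS; some results beyond the cut were filed as inactive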
INS promoter inh: TRM-6 insulin promoter activity inhibition. TRM-6 cells (human fetal islet line), insulin promoter-eGFP reporter, imaging; reporter expression induced with tamoxifen. inhibition, % at 2 µM. 130,000 compounds, 0.9% hits;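 active = inhibition above the mean plus 3 SD, with well images judged a real hit on visual review, cut at about 60% in these data, passing the limit was not always enough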
GALR2 agonist: agonists of human galanin receptor 2 (GALR2); GALR2-expressing cells, agonist activation read-out; 140,000 compounds, 0.48% hits; O43603; activation, %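 (tested at 5 µM)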;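 active = above mean plus 3 SD of all compounds, about 5% in these data, not always enough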;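 also: 0% = vehicle buffer wells and 100% = reference agonist at full effect; tested in CHO reporter cells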
PKD1 inh: inhibitors of human PKD1 kinase | 200,000 compounds, 0.056% hits | inhibition, %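 (about 10 µM by stock and volumes)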 | PKD1 kinase fluorescence polarization assay | Q15139;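 active = inhibition of 50% or more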;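 also: controls were vehicle for no effect and a reference inhibitor for full effect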
Target sequence (Q15139 whole entry, looked up): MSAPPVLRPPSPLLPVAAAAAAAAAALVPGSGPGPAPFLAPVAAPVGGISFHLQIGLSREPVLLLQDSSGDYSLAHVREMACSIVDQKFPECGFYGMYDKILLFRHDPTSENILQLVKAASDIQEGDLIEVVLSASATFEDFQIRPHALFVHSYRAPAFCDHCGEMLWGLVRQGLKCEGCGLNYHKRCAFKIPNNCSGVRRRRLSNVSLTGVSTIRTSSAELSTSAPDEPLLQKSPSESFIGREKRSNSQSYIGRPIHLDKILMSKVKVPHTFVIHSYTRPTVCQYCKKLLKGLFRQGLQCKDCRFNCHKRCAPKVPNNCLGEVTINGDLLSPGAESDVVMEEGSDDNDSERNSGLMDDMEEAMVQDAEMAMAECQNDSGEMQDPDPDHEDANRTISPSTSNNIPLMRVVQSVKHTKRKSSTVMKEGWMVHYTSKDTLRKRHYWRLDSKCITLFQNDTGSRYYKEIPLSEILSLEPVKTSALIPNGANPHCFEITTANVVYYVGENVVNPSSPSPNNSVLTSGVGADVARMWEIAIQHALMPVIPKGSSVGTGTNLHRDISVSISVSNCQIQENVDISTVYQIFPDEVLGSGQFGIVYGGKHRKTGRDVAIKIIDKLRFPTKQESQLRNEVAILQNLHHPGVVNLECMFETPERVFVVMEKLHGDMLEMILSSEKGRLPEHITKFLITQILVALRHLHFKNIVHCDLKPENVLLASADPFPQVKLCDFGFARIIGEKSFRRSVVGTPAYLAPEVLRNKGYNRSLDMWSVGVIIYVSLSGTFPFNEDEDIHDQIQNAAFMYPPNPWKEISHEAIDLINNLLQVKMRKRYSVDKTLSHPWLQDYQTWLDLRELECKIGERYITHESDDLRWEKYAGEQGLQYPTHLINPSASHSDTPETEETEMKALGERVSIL
INS promoter inh cell count: further read-out of INS promoter inh, marked with its call; normalized cell count, %; measured here: cell count, toxicity; reference of the scale not given here;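 cells exposed to compound for 48 h; stained nuclei by imaging scaled within each plate; lower means fewer cells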
HSV augment primary fold: recorded beside HSV augment, whose call it bears; fold increase; compound at 10 µM; measured here: primary screen fold increase 10 uM; tested in PC3 cells;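 GFP signal in the first replicate; 1 = infected wells without compound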
* hit, by the source's call; i = inactive; . = not tested or not shown.

SMILES	HSV augment	HSV augment primary fold	RGS16-Gao	INS promoter inh	INS promoter inh cell count	GALR2 agonist	PKD1 inh
CC1CCCN(CCOCCOc2ccccc2-c2ccccc2)C1 (centres undefined)	i	0.83	107	-7	133	0.2	-11
COc1ccc(Cc2nnc(SCC(=O)Nc3ncc(C)s3)o2)cc1	i	0.84	101	70	75	-3.8	-1
C1CCc2c(nc3nnnn3c2NCC2CC2)C1	i	0.92	99	.	.	.	.
CCCCC(=O)NC(=S)Nc1ccc(NC(=O)C(C)C)c(OC)c1	i	0.89	106	.	.	.	-2
Cc1ccccc1S(=O)(=O)Cc1ccc(C(=O)NCc2ccc(F)cc2)o1	i	0.96	96	.	.	.	4
Cc1nc(C)c(/C(O)=C\c2nc3ccc([N+](=O)[O-])cc3oc2=O)o1	i	1	99	.	.	.	.
COc1ccc(-c2ccc(-c3nnc(-c4ccncc4)o3)cc2)cc1	i	1	100	.	.	0.7	-5
O=C(Nc1cccnc1)Nc1ccc(F)c(Cl)c1	i	0.81	98	32	113	-2.5	2
O=C(COc1ccccc1)N1CCN=C1SCc1ccccc1F	i	0.82	102	.	.	.	.
C=CCOc1nc(-c2ccncc2)nc2ccccc12	i	0.73	94	.	.	0.0	1
CCOc1ccc(N2C(=O)CC(Sc3n[nH]c(-c4ccccc4)n3)C2=O)cc1 (centres undefined)	i	1.1	100	.	.	.	1
Cc1ccc(C)c(CN2C(=O)COc3ccc(C(=O)c4ccccc4C(=O)O)cc32)c1	i	1	99	31	87	.	0
CC1CCc2nc(NC(=O)Nc3ccc4c(c3)OCO4)sc2C1 (centres undefined)	i	0.96	94	.	.	0.5	-12
CC1=NN(c2ccccc2)C(=O)/C1=C/c1c(O)n(-c2ccc(F)cc2)[nH]c1=O	i	0.95	170	.	.	1.1	1
C=CCS/C(=N\n1cnc2ccccc2c1=O)N(CC)CC	i	0.96	116	-3	122	-2.3	-9
COCc1cc(C)n(CC(=O)N/N=C/c2ccc(-c3ccc(Cl)c(C(=O)O)c3)o2)c(=O)c1C#N	i	1	101	-177	122	-1.4	5
CC1Oc2ccccc2OC1(O)c1ccc2ccccc2n1 (centres undefined)	i	1	103	-13	108	-0.2	-10
CC(C)c1ccc(NC(=O)CN(Cc2ccccc2)S(C)(=O)=O)cc1	i	0.96	99	-83	89	-2.0	-6
O=C1C2C3c4ccccc4C(c4ccccc43)[C@@H]2C(=O)N1c1ccccn1 (some centres undefined)	i	1.1	111	.	.	.	.
CC1CCCC(C)N1C(=O)Cn1cnc2cc([N+](=O)[O-])ccc2c1=O (centres undefined)	i	1	102	.	.	.	-6
O=C(CCC1CCCN(C(=O)C2=CCCC2)C1)N1CCN(c2ccccn2)CC1 (centres undefined)	i	1	101	-29	76	.	-7
CC(Nc1ccc2c(c1)OCCO2)C(=O)Nc1ccc2c(c1)OCO2 (centres undefined)	i	0.93	99	21	107	.	-4
O=S(=O)(Nc1ccc(-n2cccc2)cc1)c1ccc(Cl)cc1Cl	i	0.84	106	50	120	-1.9	-9
Cn1nnnc1SCC(=O)Nc1ccc(Cl)c(S(=O)(=O)N2CCOCC2)c1	i	0.95	98	.	.	.	.
COC(=O)C(CC(=O)c1ccc(Br)cc1)n1ccnc1 (centres undefined)	.	.	71	27	74	-1.6	-13
Cn1nnnc1SCC(=O)c1ccco1	i	1.1	100	.	.	-2.5	-7
COc1cc(NC2=Nc3cccc4cccc2c34)cc(OC)c1OC	i	0.93	121	19	97	-1.5	1
C[C@@H]1CC=C[C@H]2[C@H]1C(=O)N(Cc1ccccc1)[C@H]2c1ccc2ccccc2c1	i	0.61	95	.	.	.	.
COc1ccc(N(C(=O)c2ccc(F)cc2)C2=CC3CCC(C2)N3C)cc1 (centres undefined)	i	1	100	-39	131	-2.2	2
C/C(=N\NC(=O)c1cc(C)oc1C)c1ccc2c(c1)OCO2	i	1.1	101	.	.	.	1
CCOCCCN1CC(C(=O)NCc2ccc3c(c2)OCO3)CC1=O (centres undefined)	i	0.96	99	-20	162	.	-4
CCC(C)Oc1cc(-c2ccnc(Nc3cccc(Cl)c3)n2)ccn1 (centres undefined)	i	0.62	102	.	.	.	.
Cc1ccc(-n2nc(C)c3c(-c4cccs4)c(C#N)c(N)nc32)cc1	i	1.1	93	.	.	0.4	3
COc1ccccc1CNC(=O)C1CCCN(S(=O)(=O)c2c(C)[nH]c(=O)[nH]c2=O)C1 (centres undefined)	i	0.96	98	-12	70	-2.2	-8
O=C(CN1C(=O)COc2ccccc21)c1cccc(Cl)c1	i	1.3	92	-6	97	-1.5	-9
CCOC(=O)c1c(C)[nH]c(C)c1C(=O)CSc1nc(N)cc(=O)[nH]1	i	0.96	91	-47	127	-2.5	-1
COc1ccccc1N1CCN(c2ccc(-c3ccccc3)nn2)CC1	i	0.54	103	-81	11	0.2	-2
O=C(c1cc2sccc2n1Cc1ccccc1)N1CCCc2ccccc21	i	0.93	102	-79	37	-2.6	9
COc1ccccc1CN(Cc1nc2ccccc2c(=O)[nH]1)C(=O)Nc1ccc(C)cc1	i	0.85	98	-25	127	-2.3	-6
CS/C(=N\S(=O)(=O)c1cccs1)NC(=O)CSc1nc2ccccc2s1	i	1	93	3	120	-2.1	-6

5 entries from above, ordered by heavy-atom count, lowest first.
SMILES	HSV augment	HSV augment primary fold	RGS16-Gao	INS promoter inh	INS promoter inh cell count	GALR2 agonist	PKD1 inh
Cc1nc(C)c(/C(O)=C\c2nc3ccc([N+](=O)[O-])cc3oc2=O)o1	i	1	99	.	.	.	.
CCC(C)Oc1cc(-c2ccnc(Nc3cccc(Cl)c3)n2)ccn1 (centres undefined)	i	0.62	102	.	.	.	.
COc1ccccc1N1CCN(c2ccc(-c3ccccc3)nn2)CC1	i	0.54	103	-81	11	0.2	-2
O=C(c1cc2sccc2n1Cc1ccccc1)N1CCCc2ccccc21	i	0.93	102	-79	37	-2.6	9
C[C@@H]1CC=C[C@H]2[C@H]1C(=O)N(Cc1ccccc1)[C@H]2c1ccc2ccccc2c1	i	0.61	95	.	.	.	.

Continuation.
SMILES	HSV augment	HSV augment primary fold	RGS16-Gao	INS promoter inh	INS promoter inh cell count	GALR2 agonist	PKD1 inh
Cc1ccc(C2=NN3C(=O)c4ccccc4C3C2)cc1 (centres undefined)	i	0.98	40	.	.	.	.
Cc1c(NC(=O)c2c(F)cccc2F)c(=O)n(-c2ccccc2)n1C	i	0.98	102	.	.	-0.3	9
CCOC(=O)N1CCC(Nc2c(NCCN3CCN(c4cccc(Cl)c4)CC3)c(=O)c2=O)CC1	i	1.1	128	.	.	-0.6	1
C=C(C)COc1ccc(-c2n[nH]c(C)c2-c2ccccc2OC)c(O)c1	i	1	94	0	54	-0.8	-9
COc1ccc([N+](=O)[O-])cc1/C=N/NC(=O)Cc1ccccc1	i	0.91	105	.	.	.	-10
COc1ccccc1CNC(=O)c1ccc(S(=O)(=O)N2CCCC2)cc1	i	0.8	62	24	140	-1.9	-6
COc1ccc(C(=O)OCC(=O)c2cc(OC)ccc2OC)c(OC)c1	i	0.72	100	-55	49	-1.8	-1
CCCCCCCC(=O)Nc1ccc(C(=O)N/N=C/c2cccc([N+](=O)[O-])c2)cc1	i	0.62	98	-50	111	-4.4	2
CC(=O)OCc1c(C(F)(F)F)nn(C)c1Sc1ccccc1	i	0.93	101	-120	99	-0.4	12
CCC(CC)C(=O)Nc1c2c(nn1-c1ccc(OC)cc1)CS(=O)(=O)C2	i	0.92	93	-20	48	0.0	-1
Cc1ccc(CSC2=Nc3sccc3C3=NC(=O)CN23)cc1	i	0.85	95	33	99	-0.9	10
CCc1nc(OCC(=O)c2ccccc2)c(C#N)c2c1COC(C)(C)C2	i	0.99	98	49	78	-1.3	5
CCOc1ccccc1-n1c(SCC(=O)Nc2ccc(CC)cc2)nc2n[nH]c(C)c2c1=N	i	0.62	106	29	131	1.4	5
O=C(C1CCC(CNc2c(N3CCCCC3)c(=O)c2=O)CC1)N1CCCC1 (centres undefined)	i	0.94	110	.	.	.	.
Cc1cc(NC(c2cccnc2)c2ccc3cccnc3c2O)no1 (centres undefined)	i	0.8	89	-6	106	-2.2	2
COc1cc(NC(=O)CN2CCCCC2C)c(C)cc1[N+](=O)[O-] (centres undefined)	i	1	88	-35	115	-1.4	-9
O=C(CCCCCN1C(=O)c2ccccc2C1=O)Nc1ccc2c(c1)OCCO2	i	0.93	97	0	122	-2.2	-4
CC(C)(C)c1csc(Sc2ccc([N+](=O)[O-])cn2)n1	i	0.82	103	.	.	.	.
CS(=O)(=O)N1CCC(Oc2ccccc2C(=O)N2CCCCC2CO)CC1 (centres undefined)	i	1	107	-4	131	.	-3
Cc1nn(-c2ccccc2)c2sc(C(=O)N3CCCCC3)cc12	i	0.87	.	.	.	-0.9	8
S=C(NC1CCCCC1)NC1CC2CCC(C1)N2Cc1ccccc1 (centres undefined)	i	0.92	104	8	84	.	0
Cc1nn(C)c(Cl)c1C(=O)NCC(=O)O	i	1	104	.	.	.	-13
Cc1ccc2[nH]c(=O)c(CN(C)C(=O)c3ccccn3)cc2c1	i	0.85	95	.	.	-3.7	-20
O=C(CCNS(=O)(=O)c1cccc2nsnc12)NCc1ccco1	i	0.92	104	.	.	.	2
Cc1ccc2nc(-c3ccc(N4C(=O)CC(N5CCCC(C)C5)C4=O)cc3)sc2c1 (centres undefined)	i	0.94	101	-50	123	-2.5	4
Cc1cccc(N2CCN(CCNC(=O)c3cc4c(s3)CS(=O)(=O)C4)CC2)c1C	i	1	154	6	46	-2.3	-3
O=C(Nc1nncs1)c1cccc(S(=O)(=O)N2CCc3ccccc32)c1	i	1	96	.	.	.	-4
O=C(O)c1ccc[nH]c1=S	i	1.2	106	.	.	.	.
Cc1[nH]c2ccccc2c1C(c1ccccn1)N1CCCC1 (centres undefined)	i	0.93	101	.	.	.	-3
COc1ccc(S(=O)(=O)Nc2ccc(N3CCOCC3)cc2)cc1Br	i	1.1	105	27	31	0.5	1
CCCC(=O)Nc1ccc(Cc2ccc(NC(=O)CCC)c(C(=O)O)c2)cc1C(=O)O	i	1	103	8	72	.	-1
O=C(CN1C(=O)CSc2ccc(S(=O)(=O)N3CCOCC3)cc21)NCc1cccnc1	i	0.99	107	-27	59	.	-2
O=C1COc2ccc(C(=O)COC(=O)CNC(=O)C3CCCCC3)cc2N1	i	0.95	154	-13	153	.	-2
CN1C(=O)C2(OCC(COc3ccc(Cl)cc3)O2)c2ccccc21 (centres undefined)	i	0.83	103	-7	80	-1.1	6
O=S(=O)(NCc1ccco1)N1CCCCCC1	i	0.89	98	21	114	-1.0	-6
CC(NS(=O)(=O)c1ccc2c(c1)OCCCO2)C(=O)O (centres undefined)	i	1	97	-24	109	-0.8	5
CCOC(=O)c1nc(-c2ccc(OC)c(OC)c2)no1	i	1.1	100	.	.	.	0
Cn1cccc1CC(=O)N/N=C\c1c2ccccc2cc2ccccc12	i	0.87	99	-15	116	0.4	5
O=C(Nc1ccc(S(=O)(=O)N2CCOCC2)cc1)c1ccco1	i	1	102	24	113	-2.3	1
O=C(NN=C1CCCCCCCCCCC1)c1cccnc1	i	0.95	103	.	.	.	-4
O=C(c1cc(-c2cccnc2)nc2ccccc12)N1CCCc2ccccc21	i	0.79	13*	.	.	0.6	6
O=C(NCc1ccncc1)Nc1ccc2c(c1)OCO2	i	0.98	106	.	.	.	-6
CC(=O)Nc1ccc(S(=O)(=O)N(CC(=O)Nc2cc(C)on2)Cc2ccc(F)cc2)cc1	i	1.1	99	.	.	.	.
CC(=O)C1=C(O)C(=O)N(c2nccs2)C1c1ccccc1 (centres undefined)	i	0.99	101	-12	116	0.5	-3
Cc1ccc(NC(=S)Nc2ccccn2)c(C)c1	i	0.97	93	.	.	.	.
COc1ccc(CCNC(=O)Cn2cnc3scc(-c4ccccc4)c3c2=O)cc1OC	i	0.91	101	-6	88	.	-8
COc1ccc2[nH]c(=O)c3c(c2c1)OC(C)(C)C=C3	i	0.94	106	.	.	-2.5	-13
O=C1c2cccc3cccc(c23)C(=O)N1CCCCCc1n[nH]c(=S)o1	i	0.95	106	.	.	.	0
CC(NC(=O)C(=O)Nc1nccs1)c1ccccc1 (centres undefined)	i	0.84	97	.	.	.	.
Cn1cc([N+](=O)[O-])c(C(=O)Nc2ccc3nc(-c4ccccc4)[nH]c3c2)n1	i	0.88	105	.	.	0.6	-14
Nn1c(SCC(=O)NC2CCCCC2)nnc1-c1ccccc1	i	0.96	110	-46	114	-1.0	6

Given with two lines to a compound: entries from further up
Under each structure: HSV augment	HSV augment primary fold	RGS16-Gao	INS promoter inh	INS promoter inh cell count	GALR2 agonist	PKD1 inh
CC(=O)Nc1ccc(S(=O)(=O)N(CC(=O)Nc2cc(C)on2)Cc2ccc(F)cc2)cc1
  i	1.1	99	.	.	.	.
CC(=O)C1=C(O)C(=O)N(c2nccs2)C1c1ccccc1 (centres undefined)
  i	0.99	101	-12	116	0.5	-3
